Compound activity deposited in PubChem BioAssay by several laboratories.
eIF4H inh = inhibitors of RNA binding by human eIF4H | Q15056 | eIF4H fluorescence polarization binding assay | inhibition, % at 35 µM | actives 0.94% (n = 290,000) | AID 2012;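 active = 50% or more with normal probe brightness, or confirmed in later tests; inconclusive = above 50% with abnormal brightness, or retests that disagree; inactive = below 50% or failed in later tests; about a fifth of its hits are not listed in these tables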;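 note: calls also rest on retests at 20 µM and on dose response follow-up; 0% = protein and probe with vehicle and 100% = probe without protein; strong numbers were not always called active; many hits fall short of the cut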
Rce1 inhib = yeast Ras-converting enzyme inhibition; calls only; actives 0.27% (n = 290,000); yeast membranes, quenched prenylated peptide cleavage fluorescence; Q03530; AID 2563;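 active = fall in fluorescence gain of 50% or more versus controls, with final raw signal at or below 3038400; inconclusive = same 50% fall but final raw signal above 3038400; inactive = fall in fluorescence gain under 50%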;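 note: plate controls were neutral control wells for no effect and wells lacking membranes for full effect; tested at 10 µM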
Target sequence (Q03530 whole entry, looked up): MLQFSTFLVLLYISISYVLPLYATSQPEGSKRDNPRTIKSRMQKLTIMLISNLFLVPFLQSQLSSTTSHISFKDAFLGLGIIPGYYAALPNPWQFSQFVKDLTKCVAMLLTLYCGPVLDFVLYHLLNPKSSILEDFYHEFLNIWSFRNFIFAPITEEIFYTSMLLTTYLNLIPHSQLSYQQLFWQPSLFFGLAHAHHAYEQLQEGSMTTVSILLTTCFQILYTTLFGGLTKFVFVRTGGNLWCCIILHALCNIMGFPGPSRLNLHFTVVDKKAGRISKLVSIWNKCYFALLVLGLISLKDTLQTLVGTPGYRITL
HIV Env fusion = inhibitors of HIV Env-mediated cell fusion | actives 1.1% (n = 360,000) | inhibition, % at 12.3 µM | HeLa-JRFL Env/CEM21 cell fusion, luciferase;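 active = mean replicate inhibition score of at least 50 and every replicate individually at or above 50; inconclusive = only one of the two criteria met; inactive = mean below 50 and not all replicates reaching 50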;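 note: 0% = plate neutral controls and 100% = maraviroc near 300 nM; one replicate is shown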
CSC inhib = blocks cancer stem cells | cancer stem cell-like cells viability, luminescence | actives 1.1% (n = 300,000) | inhibition, % at 7.5 µM | AID 2717;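 active = mean at 75% or more and at least half the replicates too; inconclusive = mean and replicates disagree; tested in HMLE shEcad cells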;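 note: 0% = median of negative and 100% = median of positive control wells; the first replicate is given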
MT1-MMP act inh = blocks activation of human MT1-MMP. P50281. HT1080 RFP-PRO-GFP cells, GFP/RFP ratio fluorescence, overnight; percent of plate control window, DMSO zero. GFP/RFP ratio change, % at 20 µM. actives 0.061% (n = 360,000). AID 651647;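 active = GFP/RFP ratio change of at least 30% with cell ATP level not reduced by more than half and red fluorescence within 50% of control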; note: strong numbers were not always called active
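Material – HT1080 RFP-PRO-GFP cells · Control set – DMSO wells and RFP-L50D-GFP cells · Incubation – overnight cell settling, then overnight compound exposure, 37 °C, 5% CO2 · Compound dosing – single-point 20 µM compound, 1% DMSO · Read-out – GFP/RFP fluorescence ratio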
PABP polyA inh = blocks human PABP binding to poly(A) RNA; fluorescence polarization; actives 1% (n = 290,000); inhibition, % at 35 µM;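 active = 50% or more with normal probe brightness, or confirmed in later tests; inconclusive = above 50% with abnormal brightness, or retests that disagree; inactive = below 50% or failed in later tests; about a fifth of its hits are not listed in these tables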;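 note: calls also rest on retests at 20 µM and on dose response follow-up; controls were probe without protein and protein plus probe with vehicle; some compounds called inactive have numbers as strong as hits; many hits fall short of the cut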
Yeast UUG start = alters start codon recognition fidelity in yeast. S. cerevisiae UUG-firefly luciferase reporter, luminescence/redox ratio. activity score, % at 18.7 µM. AID 602363. actives 0.13% (n = 350,000);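 active = replicate mean at a twofold rise or more, about +100% in these data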;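 note: firefly luciferase made from a UUG start codon reports start codon fidelity; reporter light over untreated wells divided by growth signal over untreated wells; some hits fall short of that in this replicate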
MT1-MMP act inh RFP = second read-out of MT1-MMP act inh, no call of its own (marks repeat the call); RFP signal change, %; measured here: RFP expression control read;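 0 = vehicle wells; hits needed this value within 50% of zero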
* marks the source's active call; other numbers are inactive results; i = inactive; ? = inconclusive; / = no result given.

Compound	Yeast UUG start	eIF4H inh	CSC inhib	MT1-MMP act inh	Rce1 inhib	HIV Env fusion	PABP polyA inh	MT1-MMP act inh RFP
O=C(c1ccc([N+](=O)[O-])cc1)N(Cc1cccs1)C1CCS(=O)(=O)C1 (stereo unspecified)	-14.2	-1.9	-10.3	-0.6	i	/	-1.6	1.6
CC(C)c1ccc(NC(=O)/C(C#N)=C/c2ccncc2)cc1	3.5	-0.2	-4.3	0.4	i	-35.6	6.7	6.8
CCOC(=O)c1c(C)nc2sc3c(c2c1-c1ccc(OC)cc1)NC(c1ccccc1)NC3=O (stereo unspecified)	-23.3	-0.5	-22.2	5.4	i	/	-2.7	0.5
CSCCC(NC(=O)C1CCCCC1)c1nc2ccccc2[nH]1 (stereo unspecified)	-23.4	-7.1	-2.0	-2.3	i	1.0	13.5	-4.0
Cc1ccc(S(=O)(=O)NCCc2ccncc2)cc1C	-1.1	1.9	4.2	-6.0	i	12.0	-0.6	-1.0
CCCCC(=O)Nc1cccc(NC(=O)C(C)C)c1	-18.4	4.2	10.9	-3.2	i	-61.9	-3.5	-1.8
CCCCN(C)CCNC(=O)c1cc(-c2cccnc2)nc2ccc(S(=O)(=O)N3CCC(C)CC3)cc12	-8.3	-0.1	-1.2	-4.1	i	15.1	-0.5	-5.8
CCN(CC)c1ccc(-c2nc3cnccn3c2NC2CCCC2)cc1	181.3*	3.5	-6.3	-23.2	i	-18.3	-7.4	-0.7
COC(=O)COc1ccc(C(c2c(C)[nH][nH]c2=O)c2c(C)[nH][nH]c2=O)cc1	-17.7	-0.6	/	2.3	i	10.1	6.6	0.9
CC1=C(C(=O)Nc2ccccc2)C(c2ccc(C)cc2)N=C(Nc2nc3ccccc3o2)N1 (stereo unspecified)	-9.7	-8.2	-9.1	-4.3	i	/	-5.4	0.0
COc1ccc(OC)c(NC(=O)c2cccc(NC(=O)c3ccco3)c2)c1	-4.2	/	/	1.7	/	-36.5	/	0.7
O=C(CCN1CCCC1Cc1ccccc1)c1ccc2c(c1)OCCO2 (stereo unspecified)	/	7.6	23.4	-0.1	i	/	3.3	-0.4
Cc1ccccc1N(C(=O)c1snc(C(N)=O)c1N)C(C(=O)NC1CCCC1)c1ccco1 (stereo unspecified)	-22.0	-6.6	/	1.3	i	1.3	0.7	3.8
COc1ccc(-c2nnsc2N2C(=O)c3ccccc3C2=O)cc1	-19.6	-8.3	-9.6	3.9	i	14.1	-3.1	3.0
CCOC(=O)c1c(-c2ccc(C)o2)csc1NC(=O)CN1CCC(C(N)=O)CC1	/	-1.2	10.5	2.3	/	-3.9	0.4	2.6
O=C(c1cnn2c(C(F)F)cc(-c3ccccc3)nc12)N1CCN2CCCC2C1 (stereo unspecified)	-0.9	3.5	-13.0	1.3	i	/	-3.0	-2.3
CC(=O)N1CCOc2ccc(S(=O)(=O)NCC3CCC(C(=O)Nc4ccc(C)cn4)CC3)cc21 (stereo unspecified)	-6.3	-9.7	-12.9	0.3	i	4.9	1.9	-24.2
C=CCc1cccc2cc(C(=O)NC3CCCCC3)c(=O)oc12	/	-8.5	38.8	-3.9	i	/	-4.3	-4.4
Cc1cc(C)c(C#N)c(N2CCCC(C(N)=O)C2)n1 (stereo unspecified)	2.3	-12.5	-8.6	-5.4	i	/	-6.7	0.5
COc1ccc(N(C(=O)CNC(=O)c2ccco2)C(C(=O)NC2CCCCC2)c2ccncc2)cc1 (stereo unspecified)	-7.1	6.8	-5.2	-0.5	i	-9.1	-5.2	1.3
Cn1c(=NC(=O)c2ccccc2[N+](=O)[O-])sc2cccc(F)c21	/	3.5	-1.0	1.5	i	-63.9	-6.7	0.5
NS(=O)(=O)c1ccc(CCNC(=O)COC(=O)Cc2ccc(Cl)cc2)cc1	-8.2	/	/	-1.0	/	7.5	/	5.5
O=C(CNS(=O)(=O)c1ccc(Br)s1)N1CCN(c2ncccn2)CC1	-3.1	-1.5	/	6.2	i	/	4.3	1.4
O=C(Oc1cccc(C(=S)N2CCOCC2)c1)c1cc([N+](=O)[O-])cc([N+](=O)[O-])c1	/	0.3	-5.1	1.4	i	8.5	4.4	0.5
Oc1cccc(/C=N/Nc2cc(N3CCOCC3)nc(N3CCOCC3)n2)c1	-10.5	-5.0	22.1	-1.4	i	/	17.6	-4.4
OC1c2c(F)cccc2N=C2CCCCN21 (stereo unspecified)	5.7	/	/	1.4	/	12.0	/	3.1
Cc1cc(C)cc(NC(=O)CN2CCN(C(=O)C3CCCO3)CC2)c1 (stereo unspecified)	-6.9	-6.3	2.1	0.0	i	0.2	-4.6	2.9
Cc1ccc2nc(-c3cccnc3)c(NC3CCCC3)n2c1	-9.8	13.2	-4.4	-3.8	i	9.0	0.2	-5.4
CSc1nnc(-c2ccccc2)c(=O)[nH]1	-23.8	-13.1	-1.8	-0.5	i	/	-1.6	2.9
CC1=NNC(=O)C1CCC(=O)N/N=C/C=C/c1ccccc1 (stereo unspecified)	/	-21.2	-20.5	-1.3	i	12.6	-9.7	1.9
C=CCn1c(SCC(=O)NCc2ccc3c(c2)OCO3)nnc1C1CCCCC1	-9.4	-7.1	/	-3.6	i	-63.8	-4.2	0.7
Cc1onc(-c2ccccc2)c1C(=O)Nc1ccc(Cl)cn1	-2.7	-6.0	3.4	-7.3	i	5.1	-1.0	-1.2
Cc1ccccc1NC(=O)c1cccc(NC(=O)c2ccco2)c1	-5.1	2.1	5.9	-0.3	i	5.1	-6.2	-3.0
COc1cc(/C=N/NC(=S)NC(C)C)ccc1OCC(=O)Nc1c(C)cc(C)cc1C	/	-9.4	3.0	-1.5	i	36.0	-5.4	-4.6
COc1ccc(N2CCN(CCCNC(=O)CN3C(=O)COc4ccccc43)CC2)cc1	-5.5	-3.5	9.0	3.0	i	8.8	5.0	3.4
O=S(=O)(NCC1(N2CCOCC2)CCCCC1)c1ccc(F)c(F)c1F	-14.6	/	/	-2.2	i	-9.8	/	2.6
CCCCNC(=O)C1(C)CCN1C(=O)c1c(F)ccc(C)c1F (stereo unspecified)	-10.8	/	/	3.3	/	9.2	/	6.0
CCOC(=O)N1CCN(c2nc3ccc(C)cc3n3cnnc23)CC1	-14.7	-8.8	/	1.6	i	-3.4	7.3	3.1
O=C(NCC(=O)N(c1ccccc1F)C(C(=O)NC1CCCC1)c1ccncc1)c1ccco1 (stereo unspecified)	-3.6	-4.3	/	3.5	i	-10.0	-2.4	7.3
COc1cc(C(=O)Oc2cc(C)cc(C)c2)cc(OC)c1OC	-6.2	-5.9	-6.4	5.6	i	/	-2.9	4.8
COc1ccc(NC(=O)CSc2nc(N)cc(N)n2)cc1S(=O)(=O)N1CCCCC1	-6.6	/	-7.7	2.4	/	-2.0	/	-0.3
CC(NCCc1ccc(O)cc1)C(O)c1ccc(O)cc1 (stereo unspecified)	-9.5	0.6	-0.1	4.6	i	13.7	-14.4	4.5
COc1cccc(NC(=O)COc2ccc(Br)c(C)c2)c1	-14.1	8.2	7.8	2.3	i	-5.3	7.0	1.2
CCc1cc(=O)oc2c3c(cc(OCC(=O)NCCC(=O)O)c12)OC(C)(C)CC3	-7.7	4.3	-8.9	2.7	?	-1.7	6.2	3.6
Cc1c(NS(=O)(=O)c2cc(C(=O)N(C)Cc3ccccc3)ccc2Cl)c(=O)n(-c2ccccc2)n1C	-17.6	/	-15.8	-0.2	/	-20.2	/	0.3

Three of the entries above in order of the MT1-MMP act inh RFP value, ascending.
smiles | MT1-MMP act inh RFP
Cc1onc(-c2ccccc2)c1C(=O)Nc1ccc(Cl)cn1 | -1.2
Cc1c(NS(=O)(=O)c2cc(C(=O)N(C)Cc3ccccc3)ccc2Cl)c(=O)n(-c2ccccc2)n1C | 0.3
CCOC(=O)N1CCN(c2nc3ccc(C)cc3n3cnnc23)CC1 | 3.1

Later entries.
Compound	Yeast UUG start	eIF4H inh	CSC inhib	MT1-MMP act inh	Rce1 inhib	HIV Env fusion	PABP polyA inh	MT1-MMP act inh RFP
O=C(CCC1CCN(Cc2ccc(C#CCCO)cc2)CC1)NC1CC1	-23.0	-1.4	-15.1	1.5	i	-2.2	6.4	5.9
Cc1oc(-c2ccccc2F)nc1CS(=O)(=O)CC(=O)N1CCCCCC1	-6.8	0.0	-5.9	4.9	i	-3.1	-4.9	-2.1
CCCc1ccc(OCC(O)CN2CCc3ccccc3C2)cc1 (stereo unspecified)	-1.2	-4.8	24.1	-1.7	i	-10.7	15.0	0.1
COc1ccccc1CNC(=O)C1CCC(CNc2c(N3CCCCC3)c(=O)c2=O)CC1 (stereo unspecified)	3.2	4.2	-1.8	-5.6	i	-27.4	-6.3	-3.0
COc1cccc(C(=O)/C=C/Nc2ccc(S(=O)(=O)Nc3cnc4ccccc4n3)cc2)c1	/	-3.6	-0.4	-0.9	i	1.1	?	4.2
Cc1cccn2c(=O)nc(SCC(=O)N3CCCCCC3)nc12	6.5	/	4.8	-1.4	i	/	/	-0.5
Cn1c(/C=C/c2ccc([N+](=O)[O-])o2)nc2ccccc2c1=O	-22.6	?	110.0*	-124.5	i	/	67.6*	-29.3
O=C(CNS(=O)(=O)c1ccccc1)OCC(=O)c1ccccc1Cl	2.3	-8.2	2.3	-0.3	i	/	4.0	4.5
Cc1c(NC(=O)c2csc3c2CCCC3)c(=O)n(-c2ccccc2)n1C	-5.3	6.3	/	2.4	i	-5.4	-4.7	5.7
CCn1c(SCC(=O)Nc2ccc3c(c2)OCCO3)nnc1-c1ccccn1	-10.3	-2.1	-5.9	2.5	i	4.9	-3.7	1.1
CCc1cccc(Nc2c3c(nc4ncnn24)CCC3)c1	-11.0	-10.6	-4.2	1.2	i	8.8	-5.3	-5.9
Cc1ccc2c(CC(=O)NNC(=O)c3ccncc3)coc2c1	-17.3	/	-1.9	-2.9	i	3.4	/	3.2
CCn1cc(/C=C(\NC(=O)c2ccccc2F)C(=O)NCCN2CCOCC2)c2ccccc21	15.5	-7.5	7.4	-9.1	i	12.7	-5.6	-1.4
Cc1cccc2cc(CN(C(=O)c3cnccn3)C3CCCCC3)c(Cl)nc12	-5.3	-7.7	10.8	-1.5	i	/	-2.4	0.4
COc1ccc(CC(=O)Nc2ccc(S(=O)(=O)Nc3nccs3)cc2)cc1	-12.1	-3.1	-2.5	-2.9	i	7.7	6.4	1.5

An unsorted share of the library. Share with any hit: about 2.9%.
